CapD inh: CapD enzyme inhibition. z-score (no concentration beside the values). hit rate 0.23% among 140,000. purified CapD enzyme, fluorescence intensity read-out; hits give low values; some hits fall short of the stated cut;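 active means z-score under -4 in either of two replicates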;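 further: stock transfer was 100 nL into about 40 µL; score is relative to mean and spread of the plate; one replicate is shown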
AID504770: growth inhibitors of E. coli YBA685 in a screen for V. cholerae RctB (chromosome II replication) inhibitors | E. coli YBA685 rctB-dependent plasmid, OD600 growth, 3 h; hits give low values | z-score (test concentration not listed) | hit rate 0.27% among 130,000 | AID 504770;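 active means z-score under -2 on both plates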;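 further: wells of about 30 µL received 100 nL stock; score is relative to mean and SD of the test wells; the first replicate is given; strong numbers were not always called active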
Starred values were filed as active, the others as inactive; i = inactive; / = no result given; & = joins results of further samples. No enrichment for hits; 0.39% or so of the library scored in one or more.

Every second line gives: CapD inh	AID504770
CCOC(OCC)c1ccc(/C=C(\C#N)S(=O)(=O)c2ccccn2)cc1
 : -0.23	-0.7
c1ccc(-c2noc(CSc3nnc(-c4ccco4)n3-c3ccccc3)n2)cc1
 : 0.53	-0.9
Cc1cc(NC(=O)c2cc(-c3ccc4c(c3)OCO4)on2)no1
 : 0.095	0.2
CC1(C)OC(=O)C1C(=O)O (stereo not given)
 : -0.52	-0.9
CC(C)(C)NC(=O)CSc1nnc2c(n1)-c1cccc3cccc-2c13
 : 0.8	/
CC(C)n1nnc2cc(C(=O)O)ccc21
 : 0.2	/
CC1=C(NN(C)c2cccc(Cl)c2)C(=O)N(C2CCCCC2)C1
 : -2.4	0
CN1C2CCC1CC(NC(=O)c1c(F)cccc1F)C2 (stereo not given)
 : 1.1	0.15
CC(C)(C)NC(=O)CSC1=C(C#N)C(c2ccco2)C2=C(CCCC2=O)N1 (stereo not given)
 : 0.47	1.2
N#Cc1ccc(-c2csc(N)n2)cc1
 : 5.3	-1.4
CS(=O)(=O)c1nc2ccccc2n1Cc1ccccc1
 : 0.38	-0.45
c1ccc(-n2nnnc2NC2CCCCCC2)cc1
 : /	0.2
COc1cc(/C=C/C(=O)Nc2ccc(S(=O)(=O)N3CCCC3)cc2)cc(OC)c1OC
 : 31	0.75
CCN(CC)Cc1cc(C(C)(C)C)oc1C(=O)O
 : 0.22	-0.25
CCc1cccc(C)c1NC(=O)C(C)C
 : 1	0.75
N#CC(C#N)=CNc1c(F)cccc1Cl
 : -0.03	-0.3
Cc1ccc2c(c1)N(C(=O)CN1C=NS(=O)(=O)c3ccccc31)CCO2
 : -1.5	1.2
CCc1noc(C)c1C(=O)Nc1ccc(OC(F)F)cc1
 : /	-0.45
O=C(OCCCCN1C(=O)c2ccccc2C1=O)c1ccc(Br)o1
 : /	0.25
Cc1nc2c(c(C)nn2-c2ccccc2)c(C)c1CCC(=O)NC(C)c1ccccc1 (stereo not given)
 : 2.4	-0.1
Cc1ccc(C(=O)OCC(=O)NC2CCCC2)cc1
 : /	1.1
CN1CCCc2cc(C#N)c(=O)[nH]c21
 : 63	-0.1
COC(=O)c1c[nH]n2c(=O)cc(C3CCNCC3)nc12
 : 0.035	-0.55
O=C(NC1CCN(Cc2ccccc2)C1)c1nn(-c2ccccc2)c(=O)c2ccccc12 (stereo not given)
 : /	0.1
CC/C(=N\NC(=O)c1cccnc1)c1cc(F)ccc1O
 : /	0.4
Cc1ccc(N=Cc2ccc(F)c(F)c2)cc1C
 : -0.35	0.15
CS(=O)c1scc2c1C(=O)CC(C)(C)C2 (stereo not given)
 : -0.27	0.35
O=C1CC(c2ccccc2)Cc2nc(N3CCc4ccccc43)ncc21 (stereo not given)
 : 0.67	-0.1
Cc1nn(-c2ccccc2)c(N2CCCC2)c1/C=N/NC(=O)Cn1ccc(C(F)(F)F)n1
 : /	-0.55
NS(=O)(=O)c1ccc(CNC(=O)OCCC2CCCCC2)cc1
 : 0.015	/

Ordered by molar mass (lowest first): some entries from above
Every second line gives: CapD inh	AID504770
Cc1cc(NC(=O)c2cc(-c3ccc4c(c3)OCO4)on2)no1
 : 0.095	0.2
CC1=C(NN(C)c2cccc(Cl)c2)C(=O)N(C2CCCCC2)C1
 : -2.4	0
Cc1ccc2c(c1)N(C(=O)CN1C=NS(=O)(=O)c3ccccc31)CCO2
 : -1.5	1.2

Later entries
Every second line gives: CapD inh	AID504770
Cn1c(O)c(C2=c3ccccc3=NC2=O)[nH]c1=S
 : 0.23	0.5
CC1CCCN(C2CCN(Cc3ccccc3Cl)CC2)C1 (stereo not given)
 : 0.07	-0.85
O=C(CSc1nc2ccccc2[nH]1)Nc1ccccc1Br
 : 0.21	1
CCOc1cc(C(=O)O)ccc1OCCOc1ccccc1
 : /	-1.2
CCOC(=O)COc1ccc2c(c1)C(=O)CC1(CCN(C(C)=O)CC1)O2
 : 87	-0.2
S=c1[nH]nc(NCCCN2CCOCC2)s1
 : /	-0.6
CC1=NNC(=O)C1C(c1ccccc1)C1C(=O)NN=C1C (stereo not given)
 : /	-0.25
CC1CCCCN1C(=O)CCS(=O)(=O)Cc1ccccc1 (stereo not given)
 : /	-0.4
O=C(O)CCc1nc2ccccc2c(=O)n1Cc1ccc2c(c1)OCO2
 : /	2.2
Cc1cc2nc(SCCOC(=O)CN3C(=O)c4ccccc4C3=O)nc(C)c2cc1C
 : -0.045	-0.45
c1ccc(NCc2ccco2)cc1
 : -0.69	-1.1
O=C(Cn1ccccc1=O)c1ccc(Cl)cc1
 : 0.18	-1.5
COCC(C)n1c(C)cc(C(=O)COC(=O)c2c(OC)cccc2OC)c1C (stereo not given)
 : /	0.35
O=C(c1ccccc1)c1ccccc1C(=O)N1CCCC1
 : 0.035	-0.1
COc1cc(OC)nc(CSCC(=O)N2CC(C)OC(C)C2)n1 (stereo not given)
 : -0.6	/
O=C(CSc1nc2ccccc2o1)Nc1ccc(Oc2ccccc2)cc1
 : -0.065	1.9
N#C/C(=C\c1ccc(F)cc1)c1c[nH]c2ccccc12
 : 56	-0.25
CCS(=O)(=O)N1CCN(c2ccc(C)cc2)C(C)C1 (stereo not given)
 : 0.29	-1.1
Cc1ccc(S(=O)(=O)NCc2nnc(NC(=O)c3cccc(NC(=O)C(F)(F)F)c3)s2)cc1
 : 0.02	/
Cc1cc(C)n2cc(CSc3nc4ccccc4[nH]3)nc2n1
 : 6.1	0.75
COC(=O)C1(O)CC(=O)c2ccccc2O1 (stereo not given)
 : /	0.15
FC(F)(F)c1cc(-c2ccco2)nc2cc(-c3ccccc3)nn12
 : 0.26	/
COC(=O)c1ccccc1NC(=O)C(F)(F)Oc1ccc(OC)cc1
 : 0.25	/
CCCN(CCC)C(=O)c1ccc(NC(=O)C2=CNCCO2)cc1
 : -0.68	-0.2
CCCCNC(=O)Nn1c(=O)[nH]c2ccccc2c1=O
 : /	0.2
O=C1NCCc2c(OCC(=O)N3CCCC3)cccc21
 : /	1.4
CN(C)c1ccc(CN2CCCCC2COC(=O)N2CCN(c3ccc(C(F)(F)F)cc3)CC2)c2ccccc12 (stereo not given)
 : 73	/
O=C(NCc1cc(F)cc2c1OCOC2)c1ccc2nonc2c1
 : 0.26	-1.1
COc1cccc(N/C(SCc2ccc(C)cc2C)=C(/C#N)C(=O)NCc2ccccc2)c1
 : -0.13	/
O=C(CN1CCOCC1)N1c2ccccc2Sc2ccc(Cl)cc21
 : -0.65	-0.6

(continued)
Every second line gives: CapD inh	AID504770
CCN1CCC(N(Cc2cccc(OC)c2)C(=O)NC23CC4CC(CC(C4)C2)C3)CC1
 : -1.6	-0.65
CN1C(c2ccccc2)CC(=O)C2(O)CCCCC12 (stereo not given)
 : 0.54	0.15
CN(C)CCCN1C(=O)CSC1c1ccc(Cl)c(Cl)c1 (stereo not given)
 : -0.01	-0.7
Nc1ncc(-c2ccccc2)n1CC1CCCO1 (stereo not given)
 : 0.76	-0.8
COC(=O)CC1Nc2ccccc2SC1=O (stereo not given)
 : -0.29	-1.1
CSc1cccc(NC(=O)c2ccc3snnc3c2)c1
 : -0.065	0.7
COC(=O)c1cccc(N=Cc2cc(Cl)cc(Cl)c2O)c1C(=O)OC
 : 9.8	/
O=C(O)CSc1ccc2ccccc2c1Br
 : -0.03	-0.5
COc1ccc(/C=C2/SC(=S)N(CCC(=O)O)C2=O)cc1
 : -2	0.05
Cc1sc(-c2ccccc2)nc1CC(=O)NNC(=O)c1csc(CS(=O)(=O)Cc2ccco2)n1
 : 1.2	/
N#Cc1ccc(NC(=O)Nc2cccc3ccccc23)cc1
 : /	1.6
CCOc1ccc(CC2C(=O)NC(=O)N(Cc3ccccc3)C2=O)cc1 (stereo not given)
 : -0.12	-0.15
Cc1oc(-c2ccccc2)nc1CC(=O)O
 : -0.51	/
COc1ccc(-n2c(=S)[nH]c3cc(C(=O)NCCSCc4ccccc4)ccc3c2=O)c(OC)c1
 : -1.7	/
CC(=O)Nc1cccc(-c2nc3ccccc3o2)c1
 : /	2.4
COC(=O)CSc1nc(C)cc(Oc2ccccc2)n1
 : -0.47	-0.25
COC(=O)CCS(=O)(=O)c1ccc2ccccc2c1
 : 0.36	-0.6
O=C(COC(=O)c1n[nH]c2ccccc12)NC1CCCCC1
 : 6.2	0.65
CCOc1ccc(Br)cc1/C=C1\SC(=S)NC1=O
 : -1.2	/
CCN=C(N)SCc1c(C)c(C)c(C)c(C)c1C
 : -0.74	/
CCOCCCNc1ccc(-c2ccccc2)nn1
 : /	0.35
CNS(=O)(=O)c1cccc(C(=O)N2CCN(C/C=C/c3ccccc3)CC2)c1
 : /	-0.95
O=C(NC1C=CS(=O)(=O)C1)c1ccccc1 (stereo not given)
 : 0.55	-0.5
O=C(O)c1ccc(COc2ccccc2)o1
 : -0.28	-0.65
O=C1CS(=O)C(c2ccc(Cl)cc2)C(=O)N1c1ccc(Cl)cc1 (stereo not given)
 : -0.83	/
CC1CCCC(C)N1NC(=S)Nc1ccccc1 (stereo not given)
 : -0.035	-0.55
Clc1cc(C2CC(c3cccs3)=Nc3ccccc3S2)cc2c1OCO2 (stereo not given)
 : -0.69	/
CC(C)(C)C(=O)Oc1ccccc1OC(=O)c1ccccc1
 : 0.77	-0.25
Cc1ccc(NC2CC(C)N(C(=O)c3cccc(F)c3)c3cc(C)ccc32)cc1 (stereo not given)
 : 0.47	/
Cc1ccc2[nH]c(=O)nc(-c3ccccc3)c2c1
 : 3&0.31	-0.95&-0.15

Remaining list, next part:
Every second line gives: CapD inh	AID504770
FC(F)(F)c1ncncc1-c1nnnn1-c1ccccc1
 : 0.16	1.3
Cn1cccc1C(C(=O)NC1CCCCC1)N(C(=O)Cc1cccs1)c1ccccc1 (stereo not given)
 : /	-2
Cc1nn(-c2ccccc2)c2sc(C(=O)N(C)C(C)C(O)c3ccccc3)cc12 (stereo not given)
 : 0.06	-0.7
CC(=O)Nc1ccc(C(=O)CSc2ncn(-c3ccccc3)n2)cc1
 : /	-0.55
O=C(CC1(c2ccc(Cl)cc2)C(=O)c2ccccc2C1=O)N1CCCCC1
 : -0.38	0.65
COC(=O)/C=C/C1=C(N)c2ccccc2C1(C#N)c1ccccc1 (stereo not given)
 : 0.28	-0.4
C#CCOC(=O)Nc1cc(C)n(-c2ccccc2)n1
 : 1.2	1.9
O=C(CC1S/C(=N\N=C2CCCCCCC2)NC1=O)Nc1ccccc1 (stereo not given)
 : -0.51	0.65
CCOC(=O)c1ccc2[nH]c3c(c2c1)CCCC3C(=O)OCC (stereo not given)
 : 5.6	0.25
Cc1ccc(NC(=O)CCC2CC(C)(C)OC2=O)cc1 (stereo not given)
 : -0.06	-0.25
O=S(=O)(c1ccccc1Br)N1CCN(Cc2ccco2)CC1
 : -0.62	/
CCCCCOc1ccc(C2C3=C(CC(C)(C)CC3=O)OC3=C2C(=O)CC(C)(C)C3)cc1
 : -0.075	/
Cc1ccc(CN2C(=O)/C(=C3\SC(=S)N(CCS(=O)(=O)O)C3=O)c3cc(Br)ccc32)cc1
 : -1.1	/
Oc1ccccc1-c1cc(-c2ccc3c(c2)OCO3)cc(-c2ccccc2)n1
 : 0.17	0
S=C1Nc2cccc3cccc(c23)N1
 : /	0.55
Cc1noc(C)c1C(=O)N(C(C)C)C(C)C
 : 0.69	-0.6
OC(c1ccc(Br)cc1)C12CN3CN(CN(C3)C1)C2 (stereo not given)
 : /	-0.85
O=C(Nc1cc(Cl)cc(Cl)c1)c1cc(S(=O)(=O)N2CCCc3ccccc32)ccc1F
 : -0.24	0.55
Cc1ccc(C)c(N2C(=O)C3C4c5ccccc5C(c5ccccc54)C3C2=O)c1 (stereo not given)
 : -0.61	/
O=C(O)Cc1coc2ccc3ccccc3c12
 : 0.81	-1.1
CC(=O)NCc1ccc(S(=O)(=O)NC2CCN(Cc3ccccc3)CC2)cc1
 : /	0.3
O=S1(=O)NC(=NCc2ccccc2)c2ccccc21
 : i	1.6
O=c1c2c(nc(NCCO)n1Cc1ccccc1)-c1ccccc1CC21CCCCC1
 : 45	0.65
Cc1cccc(OCc2nnc(SC(C)C(=O)c3c(C)[nH]c4ccccc34)o2)c1 (stereo not given)
 : /	1.4
CCC(C)NC(=O)C1CCCN(S(=O)(=O)c2ccc(C)c(Cl)c2)C1 (stereo not given)
 : /	-0.6
O=C(/C=C/c1ccccc1)Oc1ccc2oc(=O)sc2c1
 : -0.56	-0.95
Cc1cccc(CS(=O)(=O)Cc2ccc(C(=O)NCc3cccs3)o2)c1
 : -0.1	-0.35
Cc1noc(C)c1-c1nc(-c2cccc(C(F)(F)F)c2)no1
 : 0.54	0.35
CCC(C)C(=O)N1c2ccccc2-c2c(ssc2=S)C1(C)C (stereo not given)
 : 0.43	/
CCOC(=O)CSC(=O)c1c(-c2c(Cl)cccc2Cl)noc1C
 : 0.2	/
Clc1cccc(Nc2nc3ccccc3c3nncn23)c1
 : 0.34	0.5
CSc1n[nH]c(N)c1C#N
 : /	-0.9

Entries from the list above containing bromine:
Every second line gives: CapD inh	AID504770
O=C(OCCCCN1C(=O)c2ccccc2C1=O)c1ccc(Br)o1
 : /	0.25
O=C(CSc1nc2ccccc2[nH]1)Nc1ccccc1Br
 : 0.21	1
O=C(O)CSc1ccc2ccccc2c1Br
 : -0.03	-0.5
CCOc1ccc(Br)cc1/C=C1\SC(=S)NC1=O
 : -1.2	/
O=S(=O)(c1ccccc1Br)N1CCN(Cc2ccco2)CC1
 : -0.62	/
Cc1ccc(CN2C(=O)/C(=C3\SC(=S)N(CCS(=O)(=O)O)C3=O)c3cc(Br)ccc32)cc1
 : -1.1	/
OC(c1ccc(Br)cc1)C12CN3CN(CN(C3)C1)C2 (stereo not given)
 : /	-0.85

High-throughput results (PubChem)
